# MgrA-DNA mod = modulators of Staphylococcus aureus MgrA DNA binding; fluorescence polarization; inhibition, %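 (about 10 µg/mL by stock and volumes)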; 0.13% of 84,000 active;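 active means above 50% in either of two replicates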;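 further: 0% = protein plus DNA without compound and 100% = DNA alone without protein; higher means less MgrA bound to DNA so lower polarization; one replicate is shown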
# Sa helicase inh = S. aureus DNA helicase inhibition | purified S. aureus helicase, fluorescence unwinding assay; about half of the hits fall short of the stated cut | inhibition, %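 (tested at about 80 µM)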 | 0.05% of 120,000 active | AID 485395;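 active means both duplicates at 50% or more, or one of them with a favoured structure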;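 further: 0% = mean of negative control wells and 100% = mean of positive control wells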
# Starred values were filed as active, the others as inactive; / = not tested or not shown. These rows are one share of the data. The share of hits here may be higher or lower than overall.
# The opening 3 entries, ahead of the listing:
SMILES,MgrA-DNA mod,Sa helicase inh
Cc1c(Cc2ccccc2)c(-n2ccnc2C)n2c(nc3ccccc32)c1C#N,/,-23
CCOC(=O)c1cnc(SCC(=O)N2CCCCC2C)nc1N (stereo not drawn),/,-27
O=C1CSC(c2ccccc2)N1C1CCCCC1 (stereo not drawn),-1.0,-4

# The listing, repeating the preview:
SMILES,MgrA-DNA mod,Sa helicase inh
Cc1c(Cc2ccccc2)c(-n2ccnc2C)n2c(nc3ccccc32)c1C#N,/,-23
CCOC(=O)c1cnc(SCC(=O)N2CCCCC2C)nc1N (stereo not drawn),/,-27
O=C1CSC(c2ccccc2)N1C1CCCCC1 (stereo not drawn),-1.0,-4
COC(=O)c1c(C)oc(C)c1S(=O)(=O)N1CCOCC1,0.1,/
COc1ccc(NC(=O)c2cc(-c3ccco3)nc3ccccc23)cc1Cl,-3.3,6
CN(CC(=O)Nc1ccccc1C(=O)Nc1ccccc1)C1CCS(=O)(=O)C1 (stereo not drawn),/,-1
O=C(O)CSCC(=O)N1CCN(Cc2ccc3c(c2)OCO3)CC1,0.1,/
Cc1cc(C(=O)NC2CCN(Cc3c(F)cccc3Cl)CC2)no1,-0.5,/
CC(Oc1cccc2c1OC(C)(C)C2)C(=O)N(C)c1ccccc1 (stereo not drawn),/,-15
CC(=O)N1CCc2cc(C(O)CN(C)Cc3ccccc3)ccc21 (stereo not drawn),8.3,-1
O=C(OCn1nnc2ccccc2c1=O)C(c1ccccc1)c1ccccc1,0.1,8
O=C1CS/C(=N\c2nccs2)N1,5.3,-45
CC(C)S(=O)(=O)c1cscc1N1C(=O)c2ccccc2C1=O,-2.0,/
CCN(CC)C(=S)Oc1ccc(C#N)cc1,-1.8,/
COc1ccc(NC(=O)CN(c2ccc(C)cc2)S(=O)(=O)c2ccc(OC)cc2)cc1,3.6,-2
CC(C(=O)Nc1ccc2c(c1)OCO2)N1CCN(S(=O)(=O)/C=C/c2ccccc2)CC1 (stereo not drawn),/,37
COc1cccc(OCc2nc3ccccc3[nH]2)c1,/,17
Cc1ccc(N=C(C#N)C2=C(O)c3ccccc3C2=O)cc1F,-0.3,/
COC(=O)CN(c1ccc2c(c1)OCCO2)S(C)(=O)=O,-1.3,6
CC(C)n1c(CO)nc2ccccc21,/,-16
CC(=O)Nc1cccc2c1Cc1ccccc1-2,-0.2,2
COC(=O)c1cccc(Oc2ncnc3sc(C)c(C)c23)c1,/,-20
O=C1c2ccccc2O[C@@H](c2ccc(Cl)cc2)[C@@H]1O,-2.1,/
NNC(=O)c1cccc(S(=O)(=O)Nc2cccc(C(F)(F)F)c2)c1,/,13
C=CCOc1ccc(C2/C(=C(\O)c3ccc(OC)cc3)C(=O)C(=O)N2CCN2CCNCC2)cc1 (stereo not drawn),/,-8
# (more compounds)
SMILES,MgrA-DNA mod,Sa helicase inh
O=C(NC1CCCCC1)c1noc2c1CCc1ccccc1-2,/,-33
CCOC(=O)N1CCC(c2[nH][nH]c(=O)c2C)CC1,/,13
O=c1c2cnn(-c3cccc(Cl)c3)c2ncn1CC1CCCO1 (stereo not drawn),/,-1
O=C(NCC(c1ccco1)N1CCCC1)c1ccc(Cl)cc1 (stereo not drawn),/,19
CC(=O)Nc1ccc(C2=N/C(=C/c3cc(Br)cs3)C(=O)O2)cc1,-4.2,/
Cc1c(-c2ccc(C#N)cc2)oc2ccccc2c1=O,/,-4
COc1ccc(-c2nnc(N3CCCCC3)c3ccccc23)cc1,1.0,/
CCCCc1ccc(CC(=O)O)cc1,-0.9,10
Cc1onc(-c2ccccc2)c1C(=O)NC(C)C,0.3,10
COC(=O)C1=C(C)N(c2ccc(C(C)C)cc2)C(=O)/C1=C\c1ccco1,2.0,12
CN1C(=O)C(=Cc2cc(Br)ccc2OCc2ccccc2)C(=O)N(C)C1=O,-0.5,/
CC1Cc2ccccc2N1C(=O)C1CCN(S(=O)(=O)c2ccc(-n3cnnn3)cc2)CC1 (stereo not drawn),0.1,-5
CSC1=NCCN1C(=O)C(C)(C)Oc1ccc(Cl)cc1,/,18
C=C(C)Cc1c(COC)nc(SCC2CC2)[nH]c1=O,-1.9,/
COC(=O)N1CCc2cc(OC)c(OC)cc2C1c1ccc(OC)c(OC)c1 (stereo not drawn),/,-18
O=C(Nc1nc2c(Cl)cccc2s1)c1ccc2ncsc2c1,/,7
CC(=O)Nc1ccc(NC(=O)C(C)OC(=O)c2cc(C)oc2C)cc1 (stereo not drawn),/,8
Clc1cccc(N2CCN(C3=Cc4ccccc4C3)CC2)c1,/,-10
CC(C)N1CCCc2cc(CN)ccc21,24,6
CCN(CC)P(=NC(=S)N1CCCC1)(c1ccccc1)N(CC)CC,/,-4
Cc1ccc(S(=O)(=O)CCSc2sc(C#N)c3c2C(=O)CC(C)(C)C3)cc1,-1.4,/
O=C(C1CC1)N1CCc2cc(Br)cc(S(=O)(=O)NCc3cccs3)c21,/,30
Cc1ccc(CN2CCc3[nH]c(=S)[nH]c(=O)c3C2)cc1,/,-34
CCN1CCCC1CNC(=O)c1ccc2c(c1)sc1nc(-c3cccc(OC)c3)cn12 (stereo not drawn),-3.8,10
COC(=O)c1c(NC(=O)CN2CCN(c3ccccc3O)CC2)sc2c1CCC2,/,6

# Looked up by compound from the entries so far, 4 records:
SMILES,MgrA-DNA mod,Sa helicase inh
Cc1onc(-c2ccccc2)c1C(=O)NC(C)C,0.3,10
CCN(CC)P(=NC(=S)N1CCCC1)(c1ccccc1)N(CC)CC,/,-4
Clc1cccc(N2CCN(C3=Cc4ccccc4C3)CC2)c1,/,-10
CCN1CCCC1CNC(=O)c1ccc2c(c1)sc1nc(-c3cccc(OC)c3)cn12 (stereo not drawn),-3.8,10

# (next part)
SMILES,MgrA-DNA mod,Sa helicase inh
CC(C(=O)O)n1cnc2scc(-c3ccc(Cl)cc3)c2c1=O (stereo not drawn),0.2,8
CC(NC(=O)c1cc(-c2ccc(Cl)cc2)n[nH]1)c1ccc2c(c1)OCCO2 (stereo not drawn),/,-35
N#C/C(=C\c1ccco1)c1ccc(Cl)cc1,1.2,/
CC1(C)CC2CC(C)(CN2C(=O)c2cc(-c3ccccc3)on2)C1 (stereo not drawn),2.8,3
CC1CCCN(S(=O)(=O)c2ccc(/C(O)=C(\C#N)c3nc4ccccc4n3C)cc2)C1 (stereo not drawn),/,10
Cc1nc(Cc2nnc(SCC(=O)N3c4ccccc4NC(=O)C3(C)C)o2)cs1,/,-4
CCCN(Cc1nnc(-c2ccco2)o1)C(=O)/C=C/c1nc2ccccc2s1,/,11
O=C(CSc1cccc[n+]1[O-])Nc1ccccc1C(F)(F)F,-1.9,9
CCC1CCCCN1CC(C)(C)NS(=O)(=O)c1ccccc1 (stereo not drawn),-4.1,3
CCC1CN2CCc3cc(OC)c(OC)cc3[C@@H]2C[C@@H]1C[C@H]1NCCc2cc(OC)c(OC)cc21 (stereo partly drawn),-8.9,23
CCCCNC(=O)c1ccc(CS(=O)(=O)c2cccc(C(F)(F)F)c2)o1,/,18
CC(C)Nc1nc(N2CCCC2)nc(N2CCCC2)n1,/,5
Cc1cccc(C(=O)N2CCCc3ccccc32)c1,3.6,9
Cn1cc(S(=O)(=O)CC(=O)Nc2ccccc2)c2ccccc21,/,12
CCNC(=O)/N=C1\NC(=O)C(C(C)C)O1 (stereo not drawn),/,-7
CC1=CC(C)C2(COC(=O)NC3CCCCC3)COC3(CCCC3)C1C2C (stereo not drawn),0.7,1
COC(=O)C1=CN(C(C)C)C=C(C(=O)OC)C1c1cccs1,/,8
Nc1nc(N)nc(-c2ccccc2)n1,/,-14
COCCn1c(COc2ccc(Cl)cc2)nnc1SCC(=O)OC,1.1,10
CCOC(=O)Cc1sc(NC(C)=O)nc1-c1ccccc1,/,-9
N#CCCNCCN1CCOCC1,/,8
COc1ccccc1OCCOc1c(Br)cc(C=C2C(=O)NC(=S)NC2=O)cc1OC,7.6,/
N#CC(C#N)=C(N=C(c1ccccc1)c1ccccc1)C(F)(F)F,/,0
CC(=C1C(=O)c2ccccc2C1=O)N1CCC(C(N)=O)(N2CCCCC2)CC1,/,-32
CC(=O)Nc1cc(C(=O)O)ccc1S(=O)(=O)c1ccc(C)cc1,/,9

# A few values from above:
# CCC1CCCCN1CC(C)(C)NS(=O)(=O)c1ccccc1 (stereo not drawn) in MgrA-DNA mod: -4.1
# CC1(C)CC2CC(C)(CN2C(=O)c2cc(-c3ccccc3)on2)C1 (stereo not drawn) in Sa helicase inh: 3
# CC(C)Nc1nc(N2CCCC2)nc(N2CCCC2)n1 in Sa helicase inh: 5
# CCCCNC(=O)c1ccc(CS(=O)(=O)c2cccc(C(F)(F)F)c2)o1 in Sa helicase inh: 18
# COC(=O)C1=CN(C(C)C)C=C(C(=O)OC)C1c1cccs1 in Sa helicase inh: 8
# CC(=C1C(=O)c2ccccc2C1=O)N1CCC(C(N)=O)(N2CCCCC2)CC1 in Sa helicase inh: -32
# Cn1cc(S(=O)(=O)CC(=O)Nc2ccccc2)c2ccccc21 in Sa helicase inh: 12

# Going on with the list:
SMILES,MgrA-DNA mod,Sa helicase inh
CCC(=O)Nc1nnc(-c2ccco2)o1,/,3
CCc1nnc(NC(=O)CCC(=O)N2CC3(C)CC2CC(C)(C)C3)s1 (stereo not drawn),3.9,2
O=C1CC2(CCCCC2)Oc2ccc(OCC(=O)N3CCOCC3)cc21,/,2
CCc1cccc(N2C(=O)CCC2(C)C(=O)NC2CCCC2)c1 (stereo not drawn),/,-39
CCc1ccc(-n2nnnc2-c2cn[nH]c2-c2ccccc2)cc1,-0.2,/
CCCc1nn2c(=O)cc(COc3ccc(/C=C(\C#N)C(=O)NCc4ccco4)cc3)nc2s1,/,-8
COc1ccc(-c2nnc(Nc3ccc(Cl)cc3)c3ccccc23)cc1,0.9,2
O=C(Oc1cc(Cl)cc(Cl)c1)C12CC3CC(CC(C3)C1)C2,1.6,/
CC1Nc2c(c(=O)oc3ccccc23)NC1=O (stereo not drawn),/,-9
CC(C)(C)C1=NN(c2nc3ccc(Cl)cc3s2)C(=O)C1,1.5,/
CSc1nc2ccccc2c(=O)n1C1CCOC(C)(C)C1 (stereo not drawn),/,-11
O=C(NCCSCc1ccco1)Nc1ccc(Cl)cc1,-1.4,/
CCc1ccc2nc(NC(=O)CCn3[nH]c(=O)ccc3=O)sc2c1,/,-10
Nc1ccc(-c2nnc(-c3ccco3)o2)cc1,/,0
O=C(Nc1cc2ccccc2s1)Nc1ccc(F)cc1F,6.2,/
CC1CC(C)CN(C(=O)Cn2c3ccccc3c3cn[nH]c(=O)c32)C1 (stereo not drawn),/,-18
CC(=O)N(c1ccccc1)c1nc(CSc2nnnn2C)cs1,/,6
CC(=O)Nc1ccccc1N1CCOCC1,1.4,/
O=C(CCn1c(=O)c2cccn2c2ccc(F)cc21)NC1CCCCC1,/,13
COc1ccc(CSC(=N)N)cc1Cl,0.8,-3
CCOC(=O)c1[nH]c(C)c(C(=O)N2CCc3ccccc3C2)c1C,/,4
C/C=C/c1ccc(Oc2nnc(C)c3ccccc23)c(OC)c1,-6.7,-3
CCn1c(=O)c(C(=O)CSc2nnc(NC3CC3)s2)c(N)n(Cc2ccccc2)c1=O,/,-4
Cc1ccc(S(=O)(=O)/N=S2/CCCSC2)cc1 (stereo not drawn),4.6,/
CC(C(=O)O)C(C(=O)O)C(C)c1ccccc1 (stereo not drawn),/,9
# The list continues.
SMILES,MgrA-DNA mod,Sa helicase inh
NC(=S)NC(=O)/C=C/c1ccccc1,1.6,7
CC(C)n1nnc(CC(=O)NN)n1,-0.4,5
N#CC(C#N)=C1N=NNN1c1ccccc1,-2.4,18
Nc1nc(N)c2[nH]c(C3CCCCC3)nc2n1,/,-8
COc1ccc(/C=c2/[nH]/c(=C/C(=O)c3ccccc3)c(=O)[nH]c2=O)cc1OC,16,-32
COc1cc2c(cc1OC)CN(C(=O)/C=C/c1ccc(F)cc1)CC2,/,22
COC(=O)C1CCN1CC1CCCO1 (stereo not drawn),/,-14
CCN(CC)C(=O)Oc1c(Br)cc(Br)c2ccc(C)nc12,2.2,8
CC1CC(C)CN(C(=O)CSc2nc3ccsc3c(=O)n2Cc2ccccn2)C1 (stereo not drawn),/,17
CCc1nc2sc3c(c2c(=O)[nH]1)CCCC3,-2.8,14
O=C(CN1CCOCC1)Nc1scc2c1c(=O)oc1ccccc12,/,-12
CS(=O)(=O)n1c(=O)sc2ccccc21,-0.8,8
O=C(NC1CCCC1)C1c2ccccc2Oc2ccccc21,-3.5,5
COC(=O)COc1ccc(S(=O)(=O)Nc2ccc(F)c(Cl)c2)cc1,2.0,7
CN(C)C1(CNC(=O)CNC(=O)c2ccccc2Br)CCCCC1,/,-8
Cc1ccc(S(=O)(=O)CCC(=O)c2ccc(O)cc2O)cc1,/,-8
CC(C)C(=O)N1CC(=O)Nc2ccc(Cl)cc2C1c1ccccc1 (stereo not drawn),/,20
C=C1c2ccccc2N=C(SCC(=O)Nc2ccc(OC(F)F)cc2)N1C,/,2
O=C(Nc1nnc(-c2ccncc2)s1)C1c2ccccc2Oc2ccccc21,/,8
Cc1cccc(COn2cccc(C(=O)Nc3ccc(Cl)cc3C(F)(F)F)c2=O)c1,1.6,-7
CC1(O)N(CC(=O)O)C(=O)OC12CCCCC2 (stereo not drawn),-0.5,0
C=C(C)C1CC=C(CN2CC(C)OC(C)C2)CC1 (stereo not drawn),-1.3,7
O=C(Nc1ccccc1)c1cnc2n(c1=O)CCS2,/,-13
O=C(COC(=O)c1ccc(Br)cc1)Nc1cccc2ccccc12,-0.7,-20
CCCCN1C(=O)C2C(c3ccccc3O)NC(C)(C(=O)O)C2C1=O (stereo not drawn),-2.2,15
# The listing continues:
SMILES,MgrA-DNA mod,Sa helicase inh
O=C(Oc1ccc(Cl)c2cccnc12)c1ccncc1,/,3
Cc1ccc(NC(=O)c2cccc(Oc3ccc(C#N)cc3)c2)cc1,1.6,3
Cc1ccc2c(c1)C1OCCC1C(c1cccs1)N2 (stereo not drawn),16,3
CCOc1ccccc1N1CCN(C(=O)CC(C)(C)C)CC1,0.3,1
CCNC(=O)c1cc2c(=O)n3ccccc3nc2n(C(C)C)c1=N,1.6,4
COc1c(NC(=O)N(C)C)csc1Cl,0.3,/

# From PubChem
